GLA inh pH 4.5 = inhibitors of human alpha-galactosidase A at pH 4.5; AID 1467; activity change, negative = inhibition, % at 105 µM; purified enzyme, 4-MU-alpha-Gal fluorescence, pH 4.5; P06280; 230,000 tested, under 10 active; inconclusive = small, poorly fitted or top-dose-only inhibition, or a rising curve; inactive = flat fitted curve, though single readings scatter; no compound was filed as active;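 note: 0% = full activity with enzyme and -100% = basal without enzyme; dose as in the result columns while the protocol names 77 µM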
Target sequence (P06280 whole entry, looked up): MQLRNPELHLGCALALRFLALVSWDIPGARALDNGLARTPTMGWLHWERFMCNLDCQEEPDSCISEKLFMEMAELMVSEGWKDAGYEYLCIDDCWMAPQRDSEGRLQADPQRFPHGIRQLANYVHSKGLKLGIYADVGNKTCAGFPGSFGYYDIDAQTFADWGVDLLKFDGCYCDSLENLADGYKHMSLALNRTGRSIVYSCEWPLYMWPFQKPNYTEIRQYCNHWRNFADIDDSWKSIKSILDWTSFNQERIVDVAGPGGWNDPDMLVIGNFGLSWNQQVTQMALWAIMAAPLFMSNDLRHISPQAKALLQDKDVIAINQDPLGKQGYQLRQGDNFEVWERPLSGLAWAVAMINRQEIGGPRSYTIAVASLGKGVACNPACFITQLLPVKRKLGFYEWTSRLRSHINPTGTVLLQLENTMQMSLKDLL
Rango-impB inh = Rango-importin beta binding inhibition; Q14974; Rango CFP/YFP FRET sensor + importin beta, 45 min; Potency, µM (titrated, usually from 92.2 µM), without a hit: at the top dose inhibition of complex formation; 0.031% of 340,000 active; AID 540263; active = rising FRET ratio curve, often small or poorly fitted; inconclusive = mostly compound fluorescence or quenching in the first reads; inactive = flat curves in all reads;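 note: potency is the fitted concentration of half-maximal effect; 0% = DMSO wells and 100% = buffer wells lacking importin beta; nearly all actives have a fitted effect of over 15% in size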
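FRET biosensor Rango (snurportin 1 IBB between N-terminal EYFP and C-terminal Cerulean), 50 nM in PBS/1 mM DTT/0.02% Tween-20/0.1% BSA, preincubated 5 min RT with compound; 0.125 microM importin beta added, 45 min RT, CFP/YFP FRET ratio read.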
miR-21 FLuc = miR-21 reporter, rising signal; HeLa miR-21 FLuc reporter, luciferase, 48 h; Potency, µM (highest dose often 38.3 µM), for the others: top-dose reporter change, positive = more light; 340,000 tested, under 10 active; AID 2288; active = well fitted rising curve with a large enough effect; inconclusive = small, poorly fitted or top-dose-only effect; inactive = no such curve, though single readings can be large or run the other way;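 note: % of control where 0% means no effect; miR-21 action dims this reporter so a rising signal means less miR-21 action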
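HeLa miR-21-FLuc reporter line, endogenous miR-21; 2000 cells/well in DMEM/10% FBS; compound titration up to ~40uM final, 48 h, 37 degree Celsius; luciferase detection reagent, 15 min lysis, CCD luminescence.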
Rango release inh = inhibitors of RanGTP-induced Rango-importin beta complex dissociation; O95149+P62826; Biochemical FRET Rango-importin beta, RanGTP-induced dissociation; Potency, µM (top dose mostly 46.1 µM), for inactives: at the top dose activity change, negative = inhibition; 0.071% of 340,000 active; active means falling FRET ratio curve, often poorly fitted, with flat reads before Ran was added; inconclusive means other falling curves, or compound fluorescence or quenching; inactive means flat or rising ratio curve;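 note: potency is the fitted concentration of half-maximal effect; % of control where 0% means no effect; nearly all actives have a fitted effect of over 45% in size; -100% = wells without RanGTP and RCC1; the record marks most hits as doubtful in a second field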
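Quantitative HTS using a FRET biosensor: 0.1 uM Rango, 0.25 uM importin beta, 0.6 uM Ran, 2 mM GTP, 0.2 uM RCC1 final, PBS with DTT, Tween-20 and BSA. Post-read taken 45 min after Ran addition.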
* hit, by the source's call; ? = inconclusive; nt = not tested or not shown.

Rango release inh	Rango-impB inh	GLA inh pH 4.5	miR-21 FLuc	SMILES
20%	5.4%	nt	-9%	Cc1ccc(C(=O)NCC(=O)N2CCc3ccccc3C2)cc1C
1%	2.5%	14	8%	COc1ccc(NCc2nnc(SCc3ccc(Cl)cc3)n2-c2ccccc2)cc1
13%	-1.2%	1	0%	O=C(COC(=O)Cc1c[nH]c2ccccc12)Nc1ccccc1
0%	-4.3%	6	-3%	O=C(CN(c1ccc(F)cc1)S(=O)(=O)c1ccc2c(c1)OCCO2)N1CCOCC1
-14%	-6.3%	0	-3%	Cc1cc(/C(=N/O)C(C)(C)NO)ccc1Cl
8%	?	-4	-14%	CC(=O)n1c2c(c3ccccc31)OC(N)=C(C#N)C2c1ccc(C(C)C)cc1 (configuration not stated)
-20%	-2.5%	-1	2%	CC1(C)CC(=O)C(C2C3=C(CC(C)(C)CC3=O)Oc3ccccc32)C(=O)C1 (configuration not stated)
7%	3.6%	nt	-6%	Nc1cc(OC(=O)c2c(F)cccc2Cl)nn1S(=O)(=O)c1ccccc1
-2%	-3.8%	nt	nt	COc1cccc(NC(=O)CN(C)C(=O)c2cc(S(=O)(=O)N3CCCCC3)ccc2Cl)c1
16%	0.7%	19	5%	CCCNC(=O)c1ccc2c(=O)n3c(-c4ccc(C)cc4)csc3nc2c1
-10%	5.3%	0	2%	Cn1cccc1CC(=O)N/N=C/c1ccc([N+](=O)[O-])cc1
-8%	-2.2%	3	-26%	Cc1nc(-c2ccc(NC(=O)c3cccs3)cc2)cs1
6%	2.3%	-7	-43%	Fc1ccc(/C=N/NC(=S)Nc2ccc(Cl)cc2)cc1F
-19%	1.1%	8	-1%	CC(C)c1ccc(NC(=O)C(=O)C2C(=O)Nc3ccccc32)cc1 (configuration not stated)
-5%	0.6%	nt	nt	[O-]/[N+](=C\c1ccccc1)c1ccccc1
12%	-1.4%	-12	-5%	COc1ccc(C2c3ccsc3CCN2C(=O)NC(C)(C)C)cc1 (configuration not stated)
-1%	-1.5%	8	-3%	COC(=O)Cn1c(=O)c2c(nc(Br)n2Cc2ccccc2Cl)n(C)c1=O
-5%	-1.0%	2	-26%	CC(C)(C)NC(=O)c1ccccc1-c1nc(-c2ccccc2Cl)no1
15%	3.9%	-7	-22%	CCCOc1ccc(CC(=O)NNC(=S)Nc2ccccc2)cc1Br
-1%	-0.4%	1	-12%	O=C(Cn1cnc([N+](=O)[O-])n1)N/N=C/c1ccc2ccccc2c1
2%	-5.9%	-20	-6%	COc1cc(S(=O)(=O)N(Cc2ccccn2)Cc2ccccc2Cl)ccc1-n1cnnn1
17%	-0.6%	11	0%	CC12CN3CC(C)(CN(C1)C3c1ccc3c(c1)OCO3)C2 (configuration not stated)
?	?	0	-4%	CCOc1cccc(N2C(=O)CC(N3CCC(C(N)=O)(N4CCCCC4)CC3)C2=O)c1 (configuration not stated)
-3%	0.1%	nt	-2%	CCc1ccc(CCC(=O)Nc2ccc(Br)cc2)o1
0%	1.4%	-3	0%	CC(=O)Nc1ccccc1-c1nc2ccc(C(=O)N3CCN(c4cc(C)ccc4C)CC3)cc2[nH]c1=O
9%	-1.5%	-8	-12%	O=C1c2cccc3c(N4CCOCC4)c([N+](=O)[O-])cc(c23)C(=O)N1c1cccc2ccccc12
-6%	3.3%	nt	0%	Cc1ccc(-c2nnc(N3CCOCC3)c3ccccc23)cc1S(=O)(=O)N(C)C
8%	-0.3%	nt	4%	O=C(CNC(=O)[C@@H]1Cc2ccccc2CN1)NC1CCCC1
16%	0.4%	-2	13%	O=C(NCCCN1CCN(c2cccc(Cl)c2)CC1)c1nc(-c2ccncc2)no1
16%	-2.8%	-1	-12%	O=c1cc(-c2ccccc2Cl)oc2c(NS(=O)(=O)c3cccs3)ccc(O)c12
-11%	0.2%	5	-19%	CC(C)NC(=O)Cn1nnc(-c2cccc(NC(=O)c3ccccc3F)c2)n1
-10%	3.1%	nt	5%	CC(C)CCN(C(=O)c1csnn1)C(C(=O)NC1CCCC1)c1ccc(F)cc1 (configuration not stated)
-6%	2.3%	3	-2%	O=C(O)C1CCCCC1C(=O)NCCCn1ccnc1 (configuration not stated)
-9%	0.2%	-13	-6%	CCOC(=O)C1CCN(c2c(N3CCCCCC3)c(=O)c2=O)CC1
0%	1.7%	-3	-32%	COc1cc(/C=N/Nc2nc3ccccc3o2)cc(OC)c1O
-1%	-4.6%	nt	nt	O=C(COC(=O)c1n[nH]c2ccccc12)Nc1ccccc1F
-8%	?	nt	nt	Cc1ccc(OCC(=O)NNC(=O)C2CSC3(C)CCC(=O)N23)cc1 (configuration not stated)
-24%	?	-3	-16%	C/C(CCc1oc2c(Br)cc(Br)cc2c1-c1ccc(C)o1)=N\O
-25%	-0.9%	nt	nt	O=C(NCCS(=O)(=O)N1CCN(c2cccc(Cl)c2)CC1)c1ccco1
12%	-0.4%	-1	-5%	CCOC(=O)c1sc2ncn(CC(=O)N(CC)CC)c(=O)c2c1C

Given with tabs: entries from further up.
Structure	Rango release inh	Rango-impB inh	GLA inh pH 4.5	miR-21 FLuc
O=C(O)C1CCCCC1C(=O)NCCCn1ccnc1 (configuration not stated)	-6%	2.3%	3	-2%
CCOC(=O)C1CCN(c2c(N3CCCCCC3)c(=O)c2=O)CC1	-9%	0.2%	-13	-6%
COc1cc(/C=N/Nc2nc3ccccc3o2)cc(OC)c1O	0%	1.7%	-3	-32%
O=C(COC(=O)c1n[nH]c2ccccc12)Nc1ccccc1F	-1%	-4.6%	nt	nt

Next section:
Rango release inh	Rango-impB inh	GLA inh pH 4.5	miR-21 FLuc	SMILES
0%	0.4%	-8	-1%	O=C(CN(c1ccccc1Cl)S(=O)(=O)c1ccccc1)N/N=C/c1ccccc1C(=O)O
-4%	0.9%	nt	8%	CCNC(=O)CNC(=O)c1nn(Cc2ccccc2)c(=O)c2ccccc12
-7%	0.9%	nt	20%	O=S(=O)(c1ccc(Cl)cc1)N1CCC(c2nc3ccccc3[nH]2)CC1
37%	-0.2%	nt	-7%	Cc1cc(OCC(=O)Nc2ccccn2)c2c(C)cc(=O)oc2c1
-11%	2.1%	nt	14%	O=C(CN(C(=O)c1csnn1)c1cccc(C(F)(F)F)c1)NCCc1ccccc1
-2%	4.8%	nt	nt	CC(NC(=O)CN1C(=O)NC2(CCCC2)C1=O)c1ccc2ccccc2c1 (configuration not stated)
6%	-0.2%	nt	nt	CC(=O)c1nn(-c2ccc(Cl)cc2)cc1C(=O)c1ccccc1
5%	-0.6%	0	-6%	Cc1cc(C=O)c(C)n1-c1sc2c(c1C(=O)O)CCCC2
3%	-0.2%	0	0%	CCCCCC(=O)NC(=S)Nc1cccc(-c2nc3ncccc3o2)c1
-9%	4.9%	nt	-26%	COc1ccc(-c2noc(C3CCCN(C(=O)c4c(F)cccc4F)C3)n2)cc1OC (configuration not stated)
7%	0.4%	nt	nt	COc1ccc(S(=O)(=O)N2CCCCCC2)cc1C(=O)N1CCN(c2ccccc2C)CC1
-8%	-1.6%	-10	-7%	Cc1ccc(N2CCN(S(=O)(=O)c3ccc(F)c(C)c3)CC2)c(C)c1
22%	1.5%	0	5%	COC(=O)c1ccc(S(=O)(=O)N2CCCN(Cc3ccccc3)CC2)n1C
-3%	4.9%	nt	-13%	Cc1ccc(OCCCCCN2CCOCC2)cc1
?	?	0	-1%	CNC(=O)c1sc(N2N=C3/C(=C/c4ccccc4)CCCC3C2c2ccccc2)nc1C (configuration not stated)
0%	-2.2%	nt	2%	CCOc1ccc(CN(C)C(=O)c2ccc(=O)[nH]c2)cc1
?	?	17	-10%	O=c1c2ccccc2n(CC(O)CN2CCCCC2)c2ccccc12 (configuration not stated)
-18%	2.9%	nt	nt	COc1ccc(CN(C)C(=O)C2CSC3(C)CCC(=O)N23)cc1 (configuration not stated)
-10%	0.2%	8	-10%	CSc1snc(SCC(N)=O)c1C#N
-6%	0.1%	20	-7%	CC1(C)Cc2nc(NCCCO)c(C#N)cc2CO1
13%	-0.1%	7	0%	CCCC(=O)Nc1cc(OC)c(OC)cc1C(=O)O
-4%	?	nt	-18%	COc1ccc(C(=O)Nc2ccc3c(c2)C(=O)N(C)C3=O)cc1OC
20%	4.4%	0	5%	O=C(Nc1ccncc1)c1cccc2ccccc12
18%	-4.9%	nt	nt	CC(=O)N1CCc2cc(S(=O)(=O)NC(C(=O)N3CCN(c4ccccc4F)CC3)C(C)C)ccc21 (configuration not stated)
nt	nt	2	-5%	Cc1ccc2cc(C)c3nnc(SCC(=O)Nc4nc5c(s4)CCCC5)n3c2c1
16%	0.8%	10	4%	CN(Cc1ccccc1)c1cc(Cl)nc(N)n1
0%	-0.7%	nt	-2%	CC1CN(CC(=O)NCc2ccc(F)cc2)CC(C)O1 (configuration not stated)
-9%	-1.8%	nt	-5%	CC(=O)N1c2ccc(S(=O)(=O)N(C)CC(=O)NC3CCCCC3C)cc2CC1C (configuration not stated)
-3%	0.9%	1	-6%	Cc1ccc(-n2c(C)cc(C(=O)COC(=O)c3c(C)noc3C)c2C)cc1
-12%	-1.2%	nt	10%	CCOC(=O)N1CCN(CC(=O)N2c3ccccc3Sc3ccccc32)CC1
-5%	-1.2%	nt	nt	CC1(c2ccccc2)NC(=O)N(CC(=O)Nc2ccccc2N2CCCC2)C1=O (configuration not stated)
?	0.1%	nt	nt	O=C(COC(=O)c1ccc[nH]c1=O)NCCCc1ccccc1

Reprinted from the part before: two compounds, followed by the next part.
Rango release inh	Rango-impB inh	GLA inh pH 4.5	miR-21 FLuc	SMILES
-5%	-1.2%	nt	nt	CC1(c2ccccc2)NC(=O)N(CC(=O)Nc2ccccc2N2CCCC2)C1=O (configuration not stated)
?	0.1%	nt	nt	O=C(COC(=O)c1ccc[nH]c1=O)NCCCc1ccccc1
5%	2.3%	-2	-12%	CSc1c[n+]2c(n1C)CCC2
-19%	-4.9%	nt	nt	COc1cccc2cc(-c3cn4cccc(C)c4n3)c(=O)oc12
-4%	2.4%	nt	0%	COc1ccc(OC)c(CNC(=O)C2CCN(S(=O)(=O)N3CCC(C)CC3)CC2)c1
2%	-0.7%	-5	-18%	CCCCOc1ccc(C(=O)OC2CC(C)N(C)CC2C)cc1 (configuration not stated)
5.2µM*	?	4	-5%	O=C(O)CCc1ccc(-c2cccs2)n1CC1CCCO1 (configuration not stated)
1%	-1.7%	nt	-34%	COc1ccc(C(=O)Nc2ccc(N3CCCC3)cc2)cc1Br
14%	4.2%	4	0%	Cc1onc(-c2ccccc2)c1C(=O)NNC(=S)NC(=O)/C=C/c1cccs1
6%	-2.3%	nt	-3%	COc1ccc(C(CNC(=O)C(CCSC)NC(=O)c2ccccc2OC)N2CCCCC2)cc1 (configuration not stated)
8%	0.2%	nt	nt	O=C(COC(=O)c1ccc2c(c1)OCO2)NC1CCCCC1
22%	2.3%	10	-24%	O=C(Nc1cnc2ccccn2c1=O)c1ccc(Cl)cc1Cl
11%	2.8%	4	-8%	CC1CCN(S(=O)(=O)N2CCC(C(=O)NCc3ccc4c(c3)OCO4)CC2)CC1
0%	-0.5%	-2	19%	Cc1ccc(SCCNC(=O)c2ccc(C)c(S(=O)(=O)Nc3cccc(C)c3)c2)cc1
14%	-1.8%	0	0%	Cc1cccc(NC(=O)Cn2cc([N+](=O)[O-])cn2)n1
-3%	-0.1%	2	-1%	CS(=O)(=O)N1CCc2cc(S(=O)(=O)N3CCN(Cc4ccc5c(c4)OCO5)CC3)ccc21
-3%	-1.1%	1	-17%	C/C(Cl)=C/CSc1nnc2n(N)c(=O)c3ccccc3n12
8%	3.9%	nt	-1%	CC1CN(C(=S)NC(=O)c2ccccc2)CC(C)O1 (configuration not stated)
?	-3.7%	3	-6%	Cc1cc(C)cc(OCC(=O)NNC(=O)CN2C(=O)c3ccccc3C2=O)c1
-4%	?	14	-2%	CCN1CCN(c2cc(=O)n(Cc3ccc(F)cc3)c(=O)[nH]2)CC1
14%	9.6%	-4	-2%	Cc1ccccc1NC(=O)c1nc[nH]c1C(=O)NCc1ccccc1

Bioassay records deposited in PubChem BioAssay by National Center for Advancing Translational Sciences (NCATS).

An excerpt. The share of hits here may be higher or lower than overall.
